Compound activity deposited in PubChem BioAssay by several laboratories.
CSC inhib: blocks cancer stem cells. AID 2717. inhibition, % at 7.5 µM. hit rate 1.1% among 300,000. cancer stem cell-like cells viability, luminescence;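 active = mean at 75% or more and at least half the replicates too; inconclusive = mean and replicates disagree; tested in HMLE shEcad cells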;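 also: 0% = median of negative and 100% = median of positive control wells; the first replicate is given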
Rce1 inhib: yeast Ras-converting enzyme inhibition. yeast membranes, quenched prenylated peptide cleavage fluorescence. calls only. AID 2563. hit rate 0.27% among 290,000;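 active = fall in fluorescence gain of 50% or more versus controls, with final raw signal at or below 3038400; inconclusive = same 50% fall but final raw signal above 3038400; inactive = fall in fluorescence gain under 50%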;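 also: plate controls were neutral control wells for no effect and wells lacking membranes for full effect; tested at 10 µM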
eIF4H FP inh: inhibitors of RNA binding by human eIF4H | Q15056 | eIF4H fluorescence polarization binding assay | inhibition, % at 35 µM | hit rate 0.94% among 290,000;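 active = 50% or more with normal probe brightness, or confirmed in later tests; inconclusive = above 50% with abnormal brightness, or retests that disagree; inactive = below 50% or failed in later tests; about a fifth of its hits are not listed in these tables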;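 also: calls also rest on retests at 20 µM and on dose response follow-up; 0% = protein and probe with vehicle and 100% = probe without protein; strong numbers were not always called active; many hits fall short of the cut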
Env fusion inh: blocks HIV Env-driven cell-cell fusion. HeLa-JRFL Env/CEM21 cell fusion, luciferase. inhibition, % at 12.3 µM. hit rate 1.1% among 360,000;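 active = mean replicate inhibition score of at least 50 and every replicate individually at or above 50; inconclusive = only one of the two criteria met; inactive = mean below 50 and not all replicates reaching 50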;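 also: 0% = plate neutral controls and 100% = maraviroc near 300 nM; one replicate is shown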
MT1-MMP act inh: inhibitors of human MT1-MMP activation; P50281; HT1080 RFP-PRO-GFP cells, GFP/RFP ratio fluorescence, overnight; percent of plate control window, DMSO zero; GFP/RFP ratio change, % at 20 µM; hit rate 0.061% among 360,000;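 active = GFP/RFP ratio change of at least 30% with cell ATP level not reduced by more than half and red fluorescence within 50% of control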; also: strong numbers were not always called active
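system = RFP-PRO-GFP reporter HT1080 cells | dosing = 20 µM single dose, 1% DMSO | timing = overnight cell settling, then overnight compound exposure, 37 °C, 5% CO2 | read-out basis = GFP/RFP fluorescence ratio | controls = DMSO and RFP-L50D-GFP cell wells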
Yeast UUG start: yeast start codon fidelity modulation. S. cerevisiae UUG-firefly luciferase reporter, luminescence/redox ratio. activity score, % at 18.7 µM. hit rate 0.13% among 350,000;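 active = replicate mean at a twofold rise or more, about +100% in these data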;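 also: firefly luciferase made from a UUG start codon reports start codon fidelity; reporter light over untreated wells divided by growth signal over untreated wells; some hits fall short of that in this replicate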
PABP polyA inh: blocks human PABP binding to poly(A) RNA | AID 2014 | hit rate 1% among 290,000 | fluorescence polarization | inhibition, % at 35 µM;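 active = 50% or more with normal probe brightness, or confirmed in later tests; inconclusive = above 50% with abnormal brightness, or retests that disagree; inactive = below 50% or failed in later tests; about a fifth of its hits are not listed in these tables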;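 also: calls also rest on retests at 20 µM and on dose response follow-up; controls were probe without protein and protein plus probe with vehicle; some compounds called inactive have numbers as strong as hits; many hits fall short of the cut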
Target sequence (P11940 whole entry, looked up): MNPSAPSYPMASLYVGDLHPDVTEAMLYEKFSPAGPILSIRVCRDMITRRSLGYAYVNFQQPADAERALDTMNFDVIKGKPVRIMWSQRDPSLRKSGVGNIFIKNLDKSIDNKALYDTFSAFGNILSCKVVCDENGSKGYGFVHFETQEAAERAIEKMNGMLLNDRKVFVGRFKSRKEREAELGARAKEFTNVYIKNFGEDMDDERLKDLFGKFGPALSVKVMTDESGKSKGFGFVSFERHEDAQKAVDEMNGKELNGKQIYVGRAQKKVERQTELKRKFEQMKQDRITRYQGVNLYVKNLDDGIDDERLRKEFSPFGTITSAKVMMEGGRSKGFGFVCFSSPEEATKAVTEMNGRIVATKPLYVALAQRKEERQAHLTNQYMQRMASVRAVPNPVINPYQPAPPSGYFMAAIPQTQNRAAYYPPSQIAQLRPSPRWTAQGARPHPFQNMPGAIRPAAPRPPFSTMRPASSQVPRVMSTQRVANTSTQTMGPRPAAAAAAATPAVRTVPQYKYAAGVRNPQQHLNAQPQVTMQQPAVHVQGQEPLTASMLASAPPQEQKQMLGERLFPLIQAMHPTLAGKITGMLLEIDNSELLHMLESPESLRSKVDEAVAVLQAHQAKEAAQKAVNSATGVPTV
eIF4H FP inh retest: further read-out of eIF4H FP inh, marked with its call; inhibition, %; compound at 20 µM; confirmation average;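 mean of two retest wells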
PABP polyA inh retest: further read-out of PABP polyA inh, marked with its call; inhibition, %; compound at 20 µM; confirmation repeats;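 mean of two retest wells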
MT1-MMP act inh RFP: also measured in MT1-MMP act inh; calls as there; RFP signal change, %; measured here: RFP expression control read;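 0 = vehicle wells; hits needed this value within 50% of zero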
* marks the source's active call; other numbers are inactive results; i = inactive; ? = inconclusive; nt = not tested or not shown; & = joins results of further samples. Not all compounds are listed; rates above refer to the full screens.

SMILES	CSC inhib	Rce1 inhib	eIF4H FP inh	Env fusion inh	MT1-MMP act inh	MT1-MMP act inh RFP	Yeast UUG start	PABP polyA inh	others
CCN(CC)CCN=Cc1c(O)n(Cc2ccco2)c(=O)[nH]c1=O	-2	i	-13	11	0	7	-15	-5
Oc1ccccc1/C=N/NP(=S)(c1ccccc1)c1ccccc1	97*	i	6	-20	2	-5	nt	-3
CCOc1cc2c(cc1OCC)-n1cccc1C(c1ccc(F)cc1)NC2 (configuration not stated)	-18	i	-8	-11	0	1	14	0
Cc1ccccc1N1C(=O)NC(=O)/C(=C\c2cc(C)n(C)c2C)C1=O	-19	i	7	16	0	0	19	-6
COC(=O)C1=C(c2cccc(C#N)c2)C[C@@H]2CC[C@H]1N2C(=O)N1CCOCC1	4	nt	nt	-6	3	1	-8	nt
NP(=O)(Oc1ccccc1)c1ccccc1 (configuration not stated)	nt	nt	nt	-9	0	2	-10	nt
CCN1C[C@]2(COC)CC[C@H](O)[C@]34C1[C@](O)([C@@H](OC)[C@H]23)[C@@]1(O)C[C@H](OC)[C@H]2C[C@@H]4[C@@H]1[C@H]2OC	-5	nt	nt	nt	4	4	-11	nt
CC(C)(C)c1cc(OC(=O)Cc2ccccc2)ccc1O	-15	i	2	6	-1	-5	-3	4
O=C1/C(=C/c2ccc([N+](=O)[O-])cc2)N2CCC1CC2	-1	i	6	-17	2	4	-19	-2
C=CCn1c(O)c(C(CC)=NCc2ccc3c(c2)OCO3)c(=O)[nH]c1=O	5	i	-9	6	6	0	51	-9
CCOC(=O)C(O)(c1ccc(NC(=S)NC(=O)c2ccc(Cl)cc2Cl)cc1)C(F)(F)F (configuration not stated)	nt	i	6	10	-5	-6	nt	-24
CCCCn1nnnc1C(CCc1ccccc1)N1CCC2(CC1)C(=O)NCN2c1ccccc1 (configuration not stated)	nt	nt	nt	?	-3	-9	-18	nt
CS(=O)(=O)c1ccc(C2=C(CNC(=O)c3ccncc3)[C@H]3CC[C@@H](C2)N3Cc2ccccc2)cc1	nt	nt	nt	-11	4	5	-14	nt
COC(=O)C1=C(c2ccc(OC)c(OC)c2)C[C@@H]2CC[C@H]1N2C(=O)N1CCCC1	-2	nt	nt	5	34*	-0.1*	5	nt
CCN(CC)S(=O)(=O)c1ccc(N=Cc2c(O)n(-c3ccccc3)c(=O)[nH]c2=O)cc1	-17	i	?	nt	-11	7	-20	?
CCOc1cc2c(cc1OCC)-n1cccc1C(c1ccc(OC)cc1)NC2 (configuration not stated)	8	i	-1	4	-2	2	-32	5
CC1(C)CC(=O)c2cc(OCC(=O)N3CCN(Cc4ccccc4)CC3)ccc2O1	4	i	-1	-1	-1	2	nt	8
Fc1ccc(C(OCCN2CCN(CCCc3ccccc3)CC2)c2ccc(F)cc2)cc1	98*	i	nt	71*	-4	-22	-8	nt
Cc1ccc(-c2cc(C(=O)N3CCC4(CC3)OCCO4)no2)cc1	-8	i	6	-1	2	0	nt	-2
CCCC1=C(C(=O)OCC)C2(C(=O)Nc3ccccc32)C(C#N)=C(N)O1 (configuration not stated)	-10	i	3	-10	2	1	19	-2
COc1cc(CN2CCN(C(=O)COc3ccccc3)CC2)cc(OC)c1OC	-1	i	8	nt	4	4	2	11
CC(=O)N1CN(C(C)=O)CN(C(C)=O)C1	-15	i	-6	0	1	5	nt	9
COc1ccc(CCn2c(O)c(C=NCCCO)c(=O)[nH]c2=O)cc1OC	-1	i	2	nt	4	3	-17	-6
CN1CCN(c2cc([N+](=O)[O-])ccc2Cl)CC1	-6	i	2	-2	-2	4	nt	-3
C=CCN1C(=O)/C(=C/c2ccc(Br)s2)C(=O)NC1=S	nt	i	20	7	-30	14	-16	6
CN1CCc2c(C#N)c(Cl)nc(Cl)c2C1	-6	i	32	4	6	2	nt	2
O=Cc1cn(Cc2ccc([N+](=O)[O-])cc2)c2ccccc12	46	i	-7	18	-12	-9	nt	29
OC(CNCCc1c[nH]c2ccccc12)c1ccccc1 (configuration not stated)	-6	nt	-9	13	1	4	-3	-3
CCn1cc(CN2CCCC(C(=O)c3cccc(C(F)(F)F)c3)C2)cn1 (configuration not stated)	nt	nt	nt	11	3	1	-26	nt
COc1ccc(Cn2c(O)c(C=Nc3c(C)n(C)n(-c4ccccc4)c3=O)c(=O)[nH]c2=O)cc1	6	nt	-2	3	-1	6	nt	-1
Cc1cc(OC(=O)N(C)C)nc(-c2ccc(C)c(Cl)c2)n1	5	i	-8	9	-2	-2	-8	5
O=C(C[N+]12CCC(CC1)C(O)C2)c1ccc(Br)cc1 (configuration not stated)	1	i	-3	-6	2	0	-6	-2
COc1ccc(-c2nn(CCC#N)cc2C(=O)Nc2cccc([N+](=O)[O-])c2)cc1OC	-10	i	-5	-91	5	-2	5	-1
CCC(CC)NC1CCCCC1OC (configuration not stated)	6	i	0	8	-1	5	-15	21
CC(=O)Nc1ccc(S(=O)(=O)N2Cc3cnnn3-c3ccccc3C2C#N)cc1 (configuration not stated)	nt	nt	nt	-70	2	7	-19	nt
CN1CC(C(=O)c2cccc(C(F)(F)F)c2)C(c2ccc(Cl)cc2)C1 (configuration not stated)	3	i	0	-5	-1	-7	-12	-6
C[C@]12CC[C@H](OC(=O)CCC(=O)O)CC1=CCC1C2CC[C@@]2(C)C1CC[C@@H]2OC(=O)CCC(=O)O (some centres not stated)	-25	nt	nt	-17	-4	0	-11	nt
O=C(c1ccccc1F)c1cn(Cc2ccc(F)cc2)c2ccccc12	24	i	-14	13	4	-4	nt	-6
CCOC(=O)C1=C(C)OC(N)=C(C(=O)OCC)[C@@]12C(=O)N(CC(N)=O)c1ccccc12	nt	i	-4	nt	4	6	1&-13	6
O=C(c1ccc(Cl)cc1)C1CCCN(Cc2ccc3nonc3c2)C1 (configuration not stated)	20	i	-2	10	1	-3	-4	-3
O=C1C2CCCN2C(c2ccncc2)N1c1ccc(Cl)c(Cl)c1 (configuration not stated)	nt	i	3	-73	1	-1	-16	4
Cc1cc(/C=C2\C(=O)NC(=O)N(Cc3ccco3)C2=O)c(C)n1-c1ccc(C(=O)O)cc1	-4	i	41	-3	-16	4	3	14
CC(=O)Nc1ccccc1C(=O)OCc1cccc(F)c1	4	i	-1	-39	0	1	-11	4
CCC(=Nc1ccc2c(c1)CCC2)c1c(O)n(-c2ccc(OC)cc2)c(=O)[nH]c1=O	-11	i	7	5	-2	-4	nt	3
O=C(c1cc(S(=O)(=O)N2CCC3(CC2)OCCO3)ccc1F)N1CCC2(CC1)OCCO2	-12	i	-16	-12	3	4	-4	2
CC(NCc1cccc(Cl)c1Cl)C(O)c1ccccc1 (configuration not stated)	-7	i	6	13	1	3	-4	-2
O=c1[nH]c(=O)n(-c2ccc(Br)cc2)c(O)c1C=NC(CO)(CO)CO	-14	i	-7	-7	1	2	-13	-3
CN1C(=O)C(=CN2CCN(C(=O)c3ccco3)CC2)C(=O)N(C)C1=S	-10	i	12	-75	5	28	nt	6
COc1cc(CC(C)N)c(OC)cc1I (configuration not stated)	-2	i	nt	-18	-1	3	1	nt
O=C(NCC(c1cccnc1)N1CCN(c2ccccc2)CC1)Oc1ccccc1 (configuration not stated)	8	i	-6	nt	0	7	4	-18

Later entries:
SMILES	CSC inhib	Rce1 inhib	eIF4H FP inh	Env fusion inh	MT1-MMP act inh	MT1-MMP act inh RFP	Yeast UUG start	PABP polyA inh	others
O=C(CN1CCCC1=O)Nc1ccccc1	-16	i	-11	nt	2	3	-3	4
COc1ccc(C(=O)OC2C[C@H]3CC[C@H](C2)N3C)cc1OC (some centres not stated)	22	nt	nt	3	-6	0	-1	nt
OC(CNC1CCCCC1)C(F)(F)F (configuration not stated)	11	i	?	-3	-3	1	nt	?
C/C(=N\Nc1ccccc1)c1c(O)n(Cc2ccccc2)c(=O)[nH]c1=O	110*	i	-18	nt	-1	2	nt	-9
CCOC(=O)C1=C(N)Oc2cc(C)oc(=O)c2C12C(=O)N1c3c(cccc32)C(C)=CC1(C)C (configuration not stated)	-7	i	-14	-71	4	2	6	2
CCOC(=O)c1c(C)n(CCN2CCN(C)CC2)c2ccc(OC)cc12	-8	i	1	nt	3	-3	27	-4
C#C[C@]1(O)CCC2C3C(=O)C=C4C(Cl)=CCC[C@]4(C)C3CC[C@@]21C (some centres not stated)	nt	nt	nt	-24	-1	3	14	nt
CC(C)CCn1c(N)c(C(=O)NCc2cccs2)c2nc3ccccc3nc21	77*	i	-15	nt	-22	-1	-13	-3
O=c1[nH]c(=S)[nH]c(O)c1/C=C1/C=c2ccccc2=N1	37	i	69	-75	0	5	-11	54	eIF4H FP inh retest=13;PABP polyA inh retest=42
COc1ccc(CC(C)NCCc2ccc(OC)c(OC)c2)cc1 (configuration not stated)	-7	i	-2	-1	-2	1	3	-6
CC(Cc1ccccc1)NC(=O)CN1CCCC1=O (configuration not stated)	-11	i	12	31	5	-9	3	-6
NC(=O)c1ccc(N=Cc2c(O)n(Cc3ccco3)c(=O)[nH]c2=O)cc1	-5	i	55	-7	-7	2	nt	9.7*	eIF4H FP inh retest=28;PABP polyA inh retest=77*
Cc1cccc(N2C(=O)NC(=O)/C(=C/c3cc4c(cc3[N+](=O)[O-])OCO4)C2=O)c1	-14	i	92	11	-3	4	nt	46	eIF4H FP inh retest=-9;PABP polyA inh retest=6
Clc1ccc(CNCCc2ccc3c(c2)OCO3)cc1	7	i	-2	-27	1	4	-1	6
S=C1CN=C(c2ccccc2)c2cc(Cl)ccc2N1	24	i	-12	17	-4	1	2	24
Cc1nc2ccccc2c(=O)n1-c1ccc(F)cc1	nt	i	-13	-72	0	4	-10	-3
